Source: PubChem (several laboratories)
ALR inh – human ALR oxidase inhibition via reduced H2O2; P55789; purified ALR, DTT oxidation, H2O2 HRP-luminol luminescence; inhibition, % (test concentration not listed); 290,000 compounds, 3.8% hits; AID 485317;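 active = mean and each replicate at 75% or more; inconclusive = only one of the two met; inactive = neither met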;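 note: stock transfer was 7.5 nL into about 7.5 µL; 0% = neutral wells and 100% = wells with inactivated enzyme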
Target sequence (P55789 whole entry, looked up): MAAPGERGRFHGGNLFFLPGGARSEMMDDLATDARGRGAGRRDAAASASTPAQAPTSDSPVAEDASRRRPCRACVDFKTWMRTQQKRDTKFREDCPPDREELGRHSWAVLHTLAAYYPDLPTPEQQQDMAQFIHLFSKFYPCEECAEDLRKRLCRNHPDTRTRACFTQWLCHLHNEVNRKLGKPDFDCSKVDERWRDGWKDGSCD
FGF22 binding – FGF22 (human) thermal shift binding; calls only at 9.99 µM; AID 651658; 340,000 compounds, 1.5% hits; Q9HCT0; recombinant FGF22 thermal shift, SYPRO orange fluorescence; percent of sucrose octasulfate shift, DMSO zero;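 active = melting point raised past a set limit in the mean and every replicate; inconclusive = no clear call; three in four hits are not shown here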
Target sequence (Q9HCT0 whole entry, looked up): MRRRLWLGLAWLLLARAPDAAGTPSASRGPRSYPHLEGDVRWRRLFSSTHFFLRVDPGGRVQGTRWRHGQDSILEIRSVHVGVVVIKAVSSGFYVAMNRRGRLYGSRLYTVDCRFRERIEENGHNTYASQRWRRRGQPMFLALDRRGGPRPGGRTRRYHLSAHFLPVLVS
HNF4A DNA FP – change in binding of human HNF4 alpha to DNA | HNF4a-FITC DNA binding, fluorescence polarization, 1 h | activity change, % at 10 µM | 360,000 compounds, 0.3% hits | AID 1224865; in the data active = activity change above about 30%, passing the limit was not always enough;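 note: controls were the assay level and a saturating level of protein; the project sought stronger binding though the title names inhibitors; some compounds called inactive have numbers as strong as hits; positive values seem to mean higher polarization but the record does not say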
E coli growth – E. coli growth inhibition. Escherichia coli growth, OD600, 23 h; hits give low values. OD600 absorbance (no concentration beside the values). 330,000 compounds, 0.21% hits. AID 1053175;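 active = OD600 absorbance below the run mean of sample wells minus 3.6 SD, in any replicate, cut at about 0.56 in these data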;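 note: stock transfer was 300 nL into about 60 µL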
Ecoli rRNA inh – inhibits bacterial ribosomal RNA function over humanized ribosomes; E. coli WT GFP vs humanized-ribosome RFP mutants, fluorescence, 24 h; hits give low values; DMSO median 0, no signal -100; GFP signal change (wild-type ribosome), % (no concentration beside the values); 350,000 compounds, 1.6% hits;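 active = significant combined selectivity score with lowered wild-type GFP, culture density cut under 30%, mutant RFP and density less affected; inactive = any of these conditions unmet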; note: one replicate is shown; some compounds called inactive have numbers as strong as hits
MLL AF4-AF9 inh – blocks AF4 peptide binding to human AF9; AID 651704; inhibition, % at 10 µM; 350,000 compounds, 0.47% hits; AlphaScreen, biotin-AF4 peptide binding to FLAG-AF9; P42568;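 active = every replicate reaching a set inhibition limit, whatever the replicate mean, cut at about 25% in these data; inconclusive = mean inhibition reaches that limit but some replicates miss it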;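 note: 0% = plate neutral control median and 100% = total signal loss; the record names both 10 and 1 µM as test concentration; the first replicate is given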
Target sequence (P42568 whole entry, looked up): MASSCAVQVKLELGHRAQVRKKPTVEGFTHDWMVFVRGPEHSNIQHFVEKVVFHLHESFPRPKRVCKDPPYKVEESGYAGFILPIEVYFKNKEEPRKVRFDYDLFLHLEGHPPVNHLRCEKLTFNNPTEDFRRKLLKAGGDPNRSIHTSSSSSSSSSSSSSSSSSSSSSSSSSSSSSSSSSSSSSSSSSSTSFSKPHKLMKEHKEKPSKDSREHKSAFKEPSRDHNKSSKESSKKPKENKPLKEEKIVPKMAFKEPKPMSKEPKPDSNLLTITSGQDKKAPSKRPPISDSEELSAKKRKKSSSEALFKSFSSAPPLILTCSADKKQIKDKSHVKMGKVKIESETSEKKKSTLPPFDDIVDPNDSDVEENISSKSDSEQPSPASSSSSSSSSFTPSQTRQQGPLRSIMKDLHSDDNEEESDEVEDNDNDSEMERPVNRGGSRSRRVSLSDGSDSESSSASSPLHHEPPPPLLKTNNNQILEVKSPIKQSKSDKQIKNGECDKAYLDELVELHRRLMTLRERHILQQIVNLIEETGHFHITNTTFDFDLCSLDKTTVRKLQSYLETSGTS
Vif A3G – inhibitors of Vif binding to APOBEC3G peptide, primary screen, biochemical, TR-FRET, GST-Vif 1-94, biotin-A3G peptide, dose response retest (AID 1117319); TR-FRET GST-Vif / biotin-A3G peptide binding; higher % means a stronger effect; test concentration not given here; strong numbers were not always called active; one-dose inhibition, %; IC50 in µM for titrated hits; 260,000 compounds, 0.57% hits;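 active = above the screen mean plus three standard deviations and confirmed in dose response; inconclusive = results disagree or hit not tested in dose response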;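 note: Vif residues 1-94 fused to GST binding biotinylated APOBEC3G peptide 110-148; 0% = full assay without inhibitor and 100% = GST in place of GST-Vif; retest series ran down from 100 µM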
Ecoli rRNA inh OD600 – second read-out of Ecoli rRNA inh, no call of its own (marks repeat the call); OD600 change, %; measured here: OD600 growth;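 optical density of the mix in the first replicate; 0 = DMSO median and -100 = no signal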
Ecoli rRNA inh RFP – recorded beside Ecoli rRNA inh, whose call it bears; RFP signal change, %; measured here: RFP humanized mutant strains;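 first replicate; 0 = DMSO median and -100 = no signal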
* marks the source's active call; other numbers are inactive results; i = inactive; ? = inconclusive; nt = no result given; & = joins results of further samples.

Molecule	ALR inh	FGF22 binding	HNF4A DNA FP	E coli growth	Ecoli rRNA inh	Ecoli rRNA inh OD600	Ecoli rRNA inh RFP	MLL AF4-AF9 inh	Vif A3G
c1ccc(-c2cc(-c3nc4ccccc4[nH]3)c3ccccc3n2)cc1	2	i	3.7	0.71	-9	-32	7.8	2.2	-13%
CC(=O)N1CCc2c(sc(NC(=O)Cc3ccc(C)cc3C)c2C#N)C1	-1	i	0.9	0.7	18	3	0.1	-4.1	2%
O=C(Nc1cccc(S(=O)(=O)NCc2ccco2)c1)c1cc(-c2ccc(F)cc2)nc2ccccc12	9	i	-6.8	0.74	-1	9	8.4	13	?
COc1ccc(NC(=S)N(Cc2cccnc2)Cc2cc3cc(OC)c(OC)cc3[nH]c2=O)cc1	-11	i	0.4	0.7	nt	nt	nt	2.5	-16%
CCOC(=O)c1c(NC(=O)C2c3ccccc3Oc3ccccc32)sc(C(=O)N(CC)CC)c1C	nt	nt	0.9	0.79	nt	nt	nt	nt	1%
CCCC#Cc1cnc2c(c1)C(=O)N([C@H](C)CO)C[C@@H](C)[C@H](CN(C)C(=O)c1ccc3c(c1)OCO3)O2	nt	i	nt	nt	-3	-13	-2.4	1.1	nt
CC(=O)c1sc(NC(=O)c2cc3c(C)nn(-c4ccccc4)c3s2)nc1C	-8	nt	0.0	0.72	nt	nt	nt	nt	-8%
COc1ccccc1NC(=O)N[C@@H]1CC[C@@H](CCNC(=O)Cc2ccccn2)O[C@@H]1CO	nt	i	nt	nt	3	3	-0.2	-0.2	nt
COc1cccc(NC(=O)N(C)C[C@@H]2OCc3cnnn3CCCC(=O)N([C@H](C)CO)C[C@@H]2C)c1	nt	i	-0.3	nt	4&-1	10&1	1.0&-1.7	0.2&1.4&-3.7	4%
Cc1ccc(S(=O)(=O)NCC[C@H]2CC[C@H](NC(=O)C3CCOCC3)[C@H](CO)O2)cc1	nt	i	nt	nt	-4	-9	0.1	-3.8	nt
COc1ccc2c3c(n(C)c2c1)[C@H](CO)N(CC1CC1)CC31CCN(C(=O)Nc2c(C)noc2C)CC1	nt	i	nt	nt	1	8	-3.2	0.9	nt
C[C@H](NC(=O)[C@@H]1Cc2ccccc2CN1)C(=O)NC1CCCCC1	3	i	2.5	0.7	7	9	-0.9	0.0	-2%
C[C@H]1CN([C@@H](C)CO)S(=O)(=O)c2ccc(C#CCN(C)C)cc2O[C@@H]1CN(C)Cc1ccc(F)cc1	nt	i	nt	nt	-18	-38	36	23	nt
CCOc1cc(/C=N/NC(=O)C(=O)NCc2cccnc2)ccc1O	25	i	0.7	nt	14	14	0.9	-3.4	nt
CCOc1ccc(CCNC(=O)CSc2cc(=O)n(CC)c3ccccc23)cc1OCC	11	nt	0.9	0.71	nt	nt	nt	nt	11%
CN(C)/C=C(\C=N\OCc1ccc(Cl)cc1Cl)C(=O)Nc1ccc(Cl)c(Cl)c1	15	nt	-0.3	nt	nt	nt	nt	nt	2%
O=C(NCCn1ccc2ccccc21)C1CCCCC1	-10	i	-1.4	0.8	-1	-17	4.2	7.7	-2%
N#CC1(NC(=O)CSc2nnc(C3CC3)n2C2CC2)CCCCC1	3	i	2.4	0.69	10	-1	-2.1	0.6	-4%
O=C(Nc1ccccc1C(=O)N1CCOCC1)c1cccc(S(=O)(=O)N2CCCC2)c1	nt	nt	1.7	0.73	nt	nt	nt	nt	4%
C[C@@H]1CCCCO[C@@H](CN(C)CC2CCCCC2)[C@H](C)CN([C@H](C)CO)C(=O)c2cc(NC(=O)Nc3ccc(F)cc3)ccc2O1	nt	i	nt	nt	-38	-55	15	11	nt
C/C=C/c1cnc2c(c1)C(=O)N([C@H](C)CO)C[C@H](C)[C@@H](CN(C)Cc1ccc3c(c1)OCO3)O2	nt	i	nt	nt	2	2	-1.2	0.3	nt
COc1ccc(S(=O)(=O)Nc2cc3c4c(c2)CC(=O)N4CCC3)cc1C	-10	i	-1.0	0.66	0	-3	2.4	-12	3%
C[C@@H]1CN([C@H](C)CO)C(=O)c2cc(NC(=O)C3CC3)ccc2O[C@@H]1CN(C)S(=O)(=O)c1cn(C)cn1	nt	i	nt	nt	1	7	-1.1	-1.7	nt
CCCCN1CC[C@@H]2C=CC[C@H](C(=O)OC)[C@@H]2C1=O	nt	i	1.5	0.72	23	18	1.4	0.6	0%
CC(NC(=O)C12CC3CC(CC(O)(C3)C1)C2)c1ccccc1 (configuration not stated)	2	i	-3.8	0.61	5	3	-2.0	-1.2	nt
CC(=O)Nc1ccc(CN2CCC(CO)(CCOc3ccccc3)CC2)cc1	nt	i	4.8	0.72	16	16	-4.7	-2.8	8%
CSc1sc(-c2n[nH]c(=S)n2C)c2c1C=CCC2	-64	i	-12	0.64	3	32	-7.5	-3.3	3%
Cc1ccc(NC(=O)CN2CCN(c3ccccn3)CC2)cc1S(=O)(=O)N(C)C	2	i	-1.7	0.71	-6	-11	-4.1	-7.0	7%
CN(C)CCCNC(=O)[C@@H]1[C@@H](CO)[C@@H]2Cn3c(cccc3=O)[C@@H]2N1C(=O)Nc1ccccc1	nt	i	nt	nt	2	5	-0.9	-1.1	nt
O=C(Nc1ccc(F)cc1)OCCOc1ccc(Br)cc1	-22	i	3.0	0.7	-4	-2	-4.1	0.4	25%
COCC(=O)OCC(=O)c1cc(C)n(-c2ccc(Br)cc2)c1C	2	i	0.2	0.66	5	12	0.6	1.1	2%
CC1=C(C(=O)NCc2ccccc2)C(c2ccccc2OCC(N)=O)NC(=O)N1 (configuration not stated)	-14	nt	-2.8	0.65	nt	nt	nt	nt	15%
O=C(NCc1nc2ccccc2[nH]1)C1=C[C@@H](c2csc3ccccc23)C[C@@H](OCCCCO)O1	-9	i	4.9	nt	-4	-6	-0.7	2.7&2.3	nt
O=C(CSc1nc(-c2ccco2)cc(C(F)(F)F)n1)NCCCN1CCOCC1	-31	i	1.5	0.71	8	-2	0.9	-15	3%
CCOc1ccc(NC(=O)c2ccc(N3CC4CC(C3)c3cccc(=O)n3C4)c(N)c2)cc1 (configuration not stated)	-6	i	-2.1	0.68	-2	-3	-3.3	1.5	nt
COc1ccc(NC(=O)Nc2ccc3c(c2)C(=O)N([C@@H](C)CO)C[C@H](C)[C@H](CN(C)C(=O)Cc2ccccc2)OCCCC[C@H](C)O3)cc1	nt	i	nt	nt	-2	-5	1.3	0.0	nt
COc1ccccc1N(C)C(=O)c1cc(S(=O)(=O)N2CCCC2)cn1C	-9	i	-2.0	0.67	6	-7	-0.1	-6.3	nt
O=C(Cc1ccccc1)NCC(=O)OCc1ccccc1F	-16	i	-0.9	0.72	0	2	-0.3	0.7	1%
CCOC(=O)c1ccc2ncc(C(=O)OCC)c(NCCN3CCOCC3)c2c1	-9	i	0.8	0.66	-26	-20	-2.8	-14	nt
COc1c(Cl)cc(Cl)cc1CNc1ccc(S(N)(=O)=O)cc1	-23	i	0.1	0.67	-40	-58	-7.7	1.1	-9%
Cc1ccc(NC(=O)c2sccc2C)nc1	8	i	2.0	0.73	nt	nt	nt	-1.0	-9%
CCCCc1c(O)nc(SCC(=O)NC(C)(C)C)n(-c2ccccc2C)c1=O	1	nt	1.4	0.66	nt	nt	nt	nt	-3%
CCCCSc1nnc2nc(C)cc(C)n12	-10	nt	3.1	0.61	nt	nt	nt	nt	3%
COc1ccc(NC(=O)Cn2c(=O)n(CC3CCCO3)c(=O)c3cc(OC)c(OC)cc32)c(OC)c1 (configuration not stated)	nt	i	2.2	0.71	3	8	-1.8	-5.6	nt
CCN(CC(=O)Nc1c(F)cccc1F)C(=O)CNC(=O)c1cccs1	nt	i	-1.3	0.64	9	7	-1.3	-0.3	-1%
COc1ccc(N2CCN(CCNC(=O)Nc3cc(Cl)ccc3Cl)CC2)cc1	-10	i	-0.3	0.68	1	2	1.3	1.6	-1%
CC(C)NC(=O)C1(C)CCN1C(=O)c1ccc(F)c(Cl)c1 (configuration not stated)	nt	i	1.8	nt	7	8	0.5	3.3	nt
COCCSc1ccccc1C(=O)Nc1ccc(Cl)cc1	4	i	3.2	0.65	-24	-27	-17	2.5	22%
CC(=O)N(C)C[C@@H]1Oc2ncc(/C=C/c3ccccc3)cc2C(=O)N([C@@H](C)CO)C[C@@H]1C	nt	i	nt	nt	6	16	-1.1	-0.1	nt
COC(=O)c1c(NC(=S)NNC(=O)c2ccc(Cl)s2)sc(C(=O)N(C)C)c1C	?	i	-2.3	0.71	11	8	2.2	-0.8	nt
O=C1c2ccccc2N2C(=O)c3ccccc3C2N1Cc1ccco1 (configuration not stated)	-1	nt	-2.8	0.71	nt	nt	nt	-5.5	5%
COc1cc(/C=C(\C#N)c2nc3ccccc3[nH]2)ccc1Oc1ccc([N+](=O)[O-])cn1	-1	nt	4.0	0.73	-1	-1	1.2	nt	-1%
C[C@H](CO)N1C[C@H](C)[C@@H](CN(C)C(=O)Cc2cccnc2)Oc2cc(C#CC3(O)CCCC3)ccc2S1(=O)=O	nt	i	nt	nt	1	-4	1.2	0.6	nt
CC(=O)Nc1ccc(NC(=O)Cn2cnc3c(cnn3C(C)(C)C)c2=O)cc1	-3	nt	nt	0.69	nt	nt	nt	nt	8%
O=C1C(Cc2ccccc2)Nc2ncnc(N3CCN(c4ccccc4)CC3)c2N1Cc1ccc(Cl)cc1 (configuration not stated)	3	i	0.9	0.7	4	7	-1.7	-0.4	nt
COc1ccc(NC(=O)CN(C)S(=O)(=O)c2ccc(Br)s2)cc1OC	-9	i	1.5	0.68	5	2	-1.8	1.9	nt

Next part
Molecule	ALR inh	FGF22 binding	HNF4A DNA FP	E coli growth	Ecoli rRNA inh	Ecoli rRNA inh OD600	Ecoli rRNA inh RFP	MLL AF4-AF9 inh	Vif A3G
C[C@H]1CN([C@@H](C)CO)C(=O)c2cc(C3=CCCC3)cnc2O[C@@H]1CN(C)Cc1ccccc1	nt	i	nt	nt	-1	-2	1.5	4.9	nt
COc1cc(OC)c(N(C)C(=O)c2cn(C)c(=O)c3cc(OC)c(OC)cc23)cc1Cl	nt	i	0.6	0.69	-5	-6	-2.1	-0.4	2%
O=C(c1cccs1)N(c1ccc(Br)cc1)C1C=CS(=O)(=O)C1 (configuration not stated)	7	i	0.4	0.69	0	-1	-0.1	0.4	nt
CCOC(=O)c1nnsc1-c1ccc(-c2snnc2C(=O)OCC)cc1	-23	i	0.8	nt	21	24	1.9	-1.2	2%
CO[C@@H]1CC[C@@H]2CCOc3c(C#N)cccc3C(=O)N(C)[C@@H](C)C(=O)N(C)C[C@@H]1O2	nt	i	nt	nt	2	-3	-0.3	3.5	nt
COc1ccc(NC(=O)c2cc3c(CO)cnc(C)c3oc2=Nc2cc(OC)cc(OC)c2)cc1	-2	i	-1.8	0.69	0	7	-0.7	-5.5	-3%
Cc1ccc(NS(=O)(=O)c2ccc(-n3cccn3)cc2)c(Br)c1	nt	i	-0.4	nt	0	6	4.9	-0.5	10%
COc1ccc(NC(=O)C2CCCCN2S(=O)(=O)c2ccc(F)cc2)cc1 (configuration not stated)	-56	i	4.4	0.74	-8	-10	0.3	1.0	10%

A portion of the library (hit frequency here may not be typical).
